PrP UTR inh – suppresses PrP 5' UTR mRNA reporter expression | cell-based PrP 5' UTR mRNA reporter, plate reader | inhibition, % (no concentration beside the values) | hit rate 0.35% among 340,000;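 active = every replicate at 50% or more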;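 also: 0 = median of the neutral control wells; tested in H4 reporter cells; numbers are from one replicate; inactives centre near -14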
Mtb hypoxia rep – Mtb hypoxia fluorescent reporter inhibition | M. tuberculosis hypoxia-regulated fluorescent reporter, fluorescence | fluorescence inhibition, % (test concentration not listed) | hit rate 0.1% among 300,000 | AID 1159583;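 active = 35 to 45% if threefold the growth effect, above 45% if 1.5-fold the growth effect; inactive = the rest, general growth blockers included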;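 also: wells of about 50 µL received 100 nL stock; 0% = vehicle wells and 100% = reference inhibitor wells; whole bacteria with a GFP reporter of the hypoxia response; strong numbers were not always called active; many hits fall short of the cut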
Sa ugtP lethal – compounds lethal to S. aureus RN4220 ugtP deletion mutant. OD600 growth, 16 h; some inactives read as strong as hits. growth inhibition, % (no concentration beside the values). hit rate 0.54% among 330,000;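 active = z-score under -3 and OD600 up to 0.15 on both plates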;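 also: plate controls were untreated wells for no effect and antibiotic for full effect; wells of about 80 µL received 100 nL stock; the first replicate is given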
BJeLR viability – kills HRASV12-expressing BJeLR cells; BJeLR (HRASV12) viability, CellTiter-Glo ATP luminescence, 48 h; reference of the scale not given here; inhibition, % (test concentration not listed); hit rate 0.17% among 300,000; AID 1554;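 active = replicate mean above 50%; inconclusive = above 50% but judged a plate artefact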;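 also: 50 nL library stock added to about 25 µL; numbers are from one replicate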
Bead autofluor – flagged as autofluorescent in microsphere protease counterscreen. compound autofluorescence counterscreen, microsphere flow cytometry; active compounds read high. hit rate 3.1% among 360,000. fluorescence intensity (test concentration not listed);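 active = at least 3 SD above the mean of all compounds, about 16000 in these data; inconclusive = too few beads counted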;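 also: 100 nL of 1 mM stock went into each well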
Sa RN4220 lethal – S. aureus RN4220 growth inhibition. OD600, 16 h. hit rate 0.33% among 330,000. inhibition, % (test concentration not listed). AID 1259311;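 active = z-score of -3 or lower and OD600 up to 0.18 on both plates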;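 also: plate controls were untreated cells for no effect and reference antibiotic for full effect; stock transfer was 100 nL into about 80 µL; one replicate is shown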
Mtb hypoxia rep growth – also measured in Mtb hypoxia rep; calls as there; growth inhibition, %; measured here: M. tuberculosis growth (absorbance);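 0% = vehicle and 100% = reference antibiotic; read after six days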
The depositor's hits bear a star; ? = inconclusive; . = not tested or not shown. Hits appear at their usual frequency, and some 4% of all compounds hit somewhere here.

SMILES | PrP UTR inh | Mtb hypoxia rep | Mtb hypoxia rep growth | Sa ugtP lethal | BJeLR viability | Bead autofluor | Sa RN4220 lethal
Cc1ccc(-c2nnn(CC(=O)Nc3cccc4c3CCCC4)n2)o1 | -10 | . | . | -6 | -5 | 3338 | -1.1
Cc1ccc2oc(=O)ccc2c1 | 2 | 8 | 11 | 2 | . | 5098 | 6.4
CCc1ccc(NC(=O)NCCN2CCN(c3ccc(OC)cc3)CC2)cc1 | -9 | -4 | -1 | 3 | 1 | 3564 | 3.3
COc1ccc(C(=O)NNC(=S)NC(=O)c2ccc(Cl)cc2)cc1 | -10 | -4 | -3 | 80 | 6 | . | 75
COc1ccc(C)cc1N(CC(=O)NC1CCCC1)C(=O)CCC(=O)Nc1nc(C)cs1 | -8 | 0 | -7 | 4 | -17 | 4135 | 4.9
Cn1ccsc1=NC(=O)c1ccc(OC(F)(F)F)cc1 | -30 | 9 | 9 | 4 | -6 | 3688 | 5.0
Nc1ccc(C(=O)OCC(=O)N2CCN(C(=O)c3ccco3)CC2)cc1[N+](=O)[O-] | -18 | 1 | 0 | 3 | 3 | 9455 | 2.7
CC(CCC(=O)Nc1nncs1)C(=O)O (stereo not given) | -16 | 3 | 4 | 21 | -8 | 5309 | 23
CN(C)c1nc(-c2ccccc2)nnc1C(F)(F)F | -14 | . | . | -4 | -1 | 3540 | 2.3
CC(C(=O)N1CCCC1)N1CCN(S(=O)(=O)c2ccc(C(C)(C)C)cc2)CC1 (stereo not given) | 17 | -3 | 4 | 2 | . | 5518 | -0.2
CCCC(=O)NCCCc1nc2ccccc2n1CC | -13 | 4 | 10 | 3 | -2 | 5522 | 5.0
CCN(CC)S(=O)(=O)c1ccc(N2CCCCC2)c(NC(=O)c2ccncc2)c1 | -24 | -7 | -9 | 15 | 1 | 3776 | 8.7
Cc1ccc(N2C(=O)/C(=C/N3CCN(C(=O)c4ccco4)CC3)C(=O)NC2=S)cc1C | -22 | . | . | . | 11 | 2513 | .
Cc1nn(CC#N)c(=O)n1-c1ccc(C(C)C)cc1 | -6 | 12 | 7 | 6 | 3 | 5298 | 2.1
CCOC(=O)N1CCC(NS(=O)(=O)c2ccc(C#N)cc2)CC1 | -12 | -6 | 3 | -2 | -1 | 4224 | 3.3
Cc1cccc(C(=O)NCCC(=O)N2CCc3ccccc3C2)c1 | -8 | 10 | 4 | 2 | . | 3930 | 1.6
CCC(=O)N1c2ccc(S(=O)(=O)NCCc3ccc(OC)c(OC)c3)cc2CC1C (stereo not given) | -16 | 3 | -4 | 6 | 6 | 5665 | 4.5
CCc1c(C)nc2ncnn2c1N1CCC(C(=O)Nc2cccc(C(C)=O)c2)CC1 | -18 | 3 | 8 | 1 | 4 | 9669 | -0.9
O=C(CCN1C(=O)C2C3CCC(C3)C2C1=O)Nc1ccc(Br)cc1 (stereo not given) | -27 | 8 | -3 | 2 | -3 | 9700 | 1.1
CCc1nnc(NC(=O)CSC(=S)N2CCOCC2)s1 | -18 | 2 | 7 | 7 | 2 | 5811 | 3.4
Cc1nnc(SC(C)C(=O)N(C)C2CCCCC2)n1N (stereo not given) | 18 | 1 | -8 | 1 | . | 3134 | 3.1
CN(CC(=O)Nc1ccc(Cl)c(Cl)c1)C(=O)CNC(=O)Cc1ccccc1 | -8 | 0 | -1 | -2 | . | 9828 | 3.1
C/C(C=NNC(=O)c1ccccc1C)=C\c1ccccc1 | . | 3 | 10 | 44 | . | . | -3.6
O=C(Nc1ccc(Nc2ccncc2)cc1)c1ccc(Nc2ccnc3ccc([N+](=O)[O-])cc23)cc1 | . | 15 | -1 | -6 | 22 | 3283 | -1.3
COc1ccc(/C(O)=C2/C(=O)C(=O)N(CCN(C)C)C2c2ccccn2)cc1OC (stereo not given) | -19 | . | . | 8 | 5 | 3773 | 2.0
COc1ccc(C(=O)NCC(=O)OCc2c(Cl)cccc2Cl)cc1OC | 5 | 6 | 4 | 3 | . | ? | 2.4
CC(=O)NS(=O)(=O)c1ccc(NC(=O)c2cc(-c3cccs3)nc3ccccc23)cc1 | 2 | 12 | 3 | 7 | 2 | 1994 | 3.4
CSc1ccc(/C=C/C(=O)OCC(=O)NCC2CCCO2)cc1 (stereo not given) | -34 | 10 | -6 | 1 | . | 8856 | 3.4
CCOC(=O)N1CCN(C(=O)c2cc(COc3ccc(Cl)cc3OC)on2)CC1 | 0 | 5 | 3 | 0 | -1 | 6359 | 2.7
CCOC(=O)c1c(NC(=O)c2nn(CC)cc2Br)sc2c1CCCCC2 | -23 | 2 | 1 | 3 | -2 | 10524 | 3.0
CCOc1ccc(CNC(=O)CCCc2cn(C)c3ccccc23)cc1 | 1 | 7 | 15 | 11 | 1 | 3862 | -2.1
COc1ccc(NC(=O)CCS(=O)(=O)c2ccc3c(c2)CCN3C(C)=O)cc1 | -7 | 11 | 2 | 1 | 4 | 6139 | -0.6
NC(=O)c1cc(Br)cc(C2CCCCC2)c1O | -9 | -7 | -21 | 31 | 6 | 3168 | -5.0
O=C(CCc1nc2ccccc2s1)OCc1ccccc1 | -18 | 5 | -2 | 10 | -3 | 2761 | 5.4
COc1ccc(NC2c3ncccc3C(=O)N2Cc2cccs2)cc1 (stereo not given) | -20 | -4 | -2 | -8 | -4 | 2009 | -0.7
COCCN(CC(=O)NCc1ccc(OC)cc1)C(=O)CCC(=O)Nc1nccs1 | -8 | . | . | -7 | -6 | 2273 | -2.1
Cc1cccc(NC(=O)Cn2c(=O)n(CCC(=O)NC3CCCC3)c(=O)c3ccccc32)c1 | -11 | 9 | 2 | -1 | -5 | 7057 | 3.1
CC(C)CN(C(=O)CCC(=O)OCC(=O)NCCc1ccccc1)c1c(N)n(CC(C)C)c(=O)[nH]c1=O | -11 | . | . | . | -3 | 6199 | .
O=C(CSc1nc2ccc(S(=O)(=O)N3CCOCC3)cc2[nH]1)N1CCOCC1 | -7 | 10 | 4 | 10 | 11 | 2920 | -1.0
CC(C)(C)c1ccccc1OCCN1CCCC1 | -34 | 1 | 6 | -7 | 9 | 5669 | 6.1
COC(=O)CC1=C(C(=O)OC)[C@@H](c2ccccc2[N+](=O)[O-])C(C#N)=C(N)O1 | -28 | -10 | -1 | 3 | -8 | 4738 | 3.0
CC(C)CSc1nc2c(c(=O)[nH]c(=O)n2C)n1CC(O)COc1cccc2ccccc12 (stereo not given) | -21 | . | . | 4 | 4 | 2753 | 2.1
CC(=O)Nc1cccc(S(C)(=O)=O)c1 | -12 | -6 | -3 | 8 | 23 | 8917 | 11
CCOC(=O)C1(Cc2cccc(F)c2)CCN(Cc2cn(CC)nc2C)CC1 | -20 | 8 | 15 | -4 | 12 | 4180 | 2.9
Cc1cccc(NC(=O)C23CCC(C)(C(=O)O2)C3(C)C)c1 (stereo not given) | 0 | 3 | 4 | 7 | -14 | 1946 | 2.8
COC(=O)C[C@H]1c2cc(C(F)(F)F)ccc2S(=O)(=O)N1Cc1ccccc1OC | -18 | . | . | . | -1 | 4055 | .
COc1ccccc1N(CC(O)COc1ccccc1)S(=O)(=O)c1ccccc1 (stereo not given) | -12 | 8 | 5 | 1 | 1 | 10864 | 15
CC(=O)Nc1ccc(NC(=O)COc2cc(O)c3c(c2)OC(C)(C)CC3=O)cc1 | -30 | . | . | 6 | -4 | 4872 | 3.2

Three compounds from above, arranged by formula weight, smallest number first.
SMILES | PrP UTR inh | Mtb hypoxia rep | Mtb hypoxia rep growth | Sa ugtP lethal | BJeLR viability | Bead autofluor | Sa RN4220 lethal
Cc1cccc(NC(=O)C23CCC(C)(C(=O)O2)C3(C)C)c1 (stereo not given) | 0 | 3 | 4 | 7 | -14 | 1946 | 2.8
COc1ccccc1N(CC(O)COc1ccccc1)S(=O)(=O)c1ccccc1 (stereo not given) | -12 | 8 | 5 | 1 | 1 | 10864 | 15
CC(C)CSc1nc2c(c(=O)[nH]c(=O)n2C)n1CC(O)COc1cccc2ccccc12 (stereo not given) | -21 | . | . | 4 | 4 | 2753 | 2.1

Next part:
SMILES | PrP UTR inh | Mtb hypoxia rep | Mtb hypoxia rep growth | Sa ugtP lethal | BJeLR viability | Bead autofluor | Sa RN4220 lethal
Cc1cccc(NC(=O)CN(CC2CCCO2)C(=O)c2oc3ccc(F)cc3c2C)c1C (stereo not given) | -3 | 11 | 5 | 4 | . | 3527 | 7.8
C#CCSc1nnc(-c2ccccc2)c(=O)[nH]1 | -19 | 9 | 8 | 4 | -2 | 4138 | 5.7
COc1ccc(C2=NOC(COC(=O)c3ccc4ccccc4n3)C2)cc1 (stereo not given) | -14 | 8 | 9 | 1 | -6 | 2288 | 5.5
COc1ccc(C(N)=O)cc1NC(=O)CC(O)(C(F)(F)F)C(F)(F)F | -19 | 11 | 6 | -3 | 1 | 5976 | 9.2
CN(C)c1oc(-c2ccco2)nc1C#N | -12 | 11 | 11 | 2 | 7 | 3345 | 7.0
Cc1ccc(S(=O)(=O)N2N=C3CCCCC3C2(O)C(F)(F)F)cc1 (stereo not given) | 7 | -5 | 7 | -4 | -4 | 4689 | -1.0
O=C(CCNc1n[nH]c(=O)[nH]c1=O)NN=Cc1ccccc1Br | . | 1 | 4 | -3 | . | . | 1.8
C[C@H](CO)N1C[C@H](C)[C@H](CN(C)C(=O)Nc2ccc(C(F)(F)F)cc2)Oc2c(NC(=O)c3ccncc3)cccc2C1=O | -15 | -6 | 14 | 1 | . | 3940 | 3.8
O=C(NC1CCCc2ccccc21)c1cccc(Br)c1 (stereo not given) | -6 | 14 | 16 | 8 | -3 | 2643 | 6.7
COc1ccc(CCn2c(N3CCN(C)CC3)nc3c2c(=O)[nH]c(=O)n3C)cc1 | -11 | . | . | 1 | 3 | 2631 | 2.2
CC(C)(C)N1C(=O)[C@H]2[C@@H](c3ccc(Br)cc3)N3C(=O)N(c4ccccc4)C(=O)[C@@]3(C)[C@H]2C1=O | -15 | . | . | . | -2 | 3431 | .
COc1ccc(S(=O)(=O)N2CCOCC2)cc1NC(=O)c1cc(=O)[nH]c2ccccc12 | 3 | 3 | 3 | 0 | . | 3285 | 5.3
Cc1nn(CC(=O)NCCCN2CCN(C)CC2)c(=O)c2cc(-c3ccccc3)nn12 | -8 | 6 | 5 | 2 | -3 | 5945 | -0.3
O=C1CC(N2CC=C(c3ccc(F)cc3)CC2)C(=O)N1c1ccc(F)cc1 (stereo not given) | -3 | -8 | -9 | 2 | 0 | 4392 | 2.2
Cc1ccc(C)c(NC(=S)NCc2cccn2C)c1 | . | 3 | -4 | -1 | -7 | . | 1.1
C/C(=N\N1CCN(C2c3ccccc3-c3ccccc32)CC1)c1cccnc1 | -30 | . | . | . | -3 | 2261 | .
COc1ccc(OCC(=O)NCc2cccnc2)cc1 | -5 | . | . | 6 | 2 | 5012 | 3.3
CC(C)c1nnc(NC(=O)C2CC(=O)N(CCc3ccc(F)cc3)C2)s1 (stereo not given) | -17 | 19 | 7 | 4 | -1 | 3606 | 4.3
Cc1nn(C)c(C)c1NS(=O)(=O)c1ccc(OC(F)(F)F)cc1 | -4 | 5 | 7 | 2 | 7 | ? | 9.0
O=CNC(=O)c1ccccc1C(=O)O | -14 | 6 | 3 | 1 | -15 | 3928 | -4.2
O=S(=O)(CC(CN1CCOCC1)N1CCOCC1)c1ccccc1 (stereo not given) | -4 | 9 | 8 | 5 | 1 | 2246 | 1.9
Cc1ccc(S(=O)(=O)N2CCC(C(=O)Nc3ccccc3N3CCCCC3)CC2)cc1C | -5 | -4 | -1 | 1 | -2 | ? | 0.9
O=C(C1CCCN(S(=O)(=O)c2ccc(F)cc2)C1)N1CCCCCC1 (stereo not given) | -10 | 6 | 3 | 2 | 2 | 5409 | 2.2
O=C(Nc1cccc(F)c1)Nc1ccnn1C1CCN(C(=O)c2ccccn2)CC1 | -23 | 14 | 7 | 4 | 2 | 4129 | 2.4
CON=Cc1c(C(=O)OC)nn(-c2ccccc2)c1Cl | . | 0 | 0 | 6 | . | . | -0.5
CCOc1ccccc1Nc1nnc(SCC(=O)Nc2nc(-c3ccc(OC)cc3)cs2)s1 | -16 | 4 | 9 | 11 | 7 | 3497 | 11

From PubChem
